# TRPML1 inh = inhibitors of human TRPML1 channel; Q9GZU1; TRPML1-inducible cells, Ca2+ dye fluorescence, FDSS; stronger effect = lower value; inhibition of EC80 agonist-evoked calcium signal; activity change, negative = inhibition, % (concentration not given with the values); hit rate 0.02% among 390,000; in the data active means activity change below about -50%; inconclusive means about -30% to -50%; inactive means above about -30%;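 further: stimulus is agonist 54-4 at its EC80 concentration; on the % scale 0 is the no-effect control and ±100 the full control effect; compound concentration not given in the record; the text of the record puts the active cut at -80%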
#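 TRPML1-DL cells, Tet-induced overnight (~16 h, 37 °C) at 1,500 cells/well, were loaded with Ca8 no-wash dye plus quencher for 45-90 min at room temperature. Compounds were pinned during FDSS kinetic reading; agonist 54-4 at EC80 (4 uM final) then added.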
# CtBP-E1A blk = CtBP/E1A binding inhibition; hit rate 0.49% among 340,000; AlphaScreen GST-E1A/His-CtBP binding, 1536-well; stronger effect = lower value; control for the full effect not named in the record; activity change, % (concentration not given with the values); in the data active means activity change below about -65%; inconclusive means about -30% to -65%; inactive means above about -30%; further: on the % scale 0 is the no-effect control and ±100 the full control effect
#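 Protein mix (5X: 125 nM each GST-E1A, His-CtBP) was incubated with pinned compound 2 h at 37 deg C in dark, in 50 mM Tris pH 8.0 buffer with 300 mM NaCl. Glutathione donor and nickel acceptor beads followed; AlphaScreen signal read after 1 h.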
# Six1-Eya2 inh = blocks human Six1 binding to Eya2; Q15475+O00167; AlphaScreen GST-Six1/His-Eya2 binding, biochemical; stronger effect = lower value; control for the full effect not named in the record; activity change, % (test concentration not listed); hit rate 0.56% among 360,000; AID 651725; in the data active = activity change below about -65%; inconclusive = about -30% to -65%; inactive = above about -30%; further: on the % scale 0 is the no-effect control and ±100 the full control effect; compound concentration not given in the record
# Target sequence (O00167 whole entry, looked up): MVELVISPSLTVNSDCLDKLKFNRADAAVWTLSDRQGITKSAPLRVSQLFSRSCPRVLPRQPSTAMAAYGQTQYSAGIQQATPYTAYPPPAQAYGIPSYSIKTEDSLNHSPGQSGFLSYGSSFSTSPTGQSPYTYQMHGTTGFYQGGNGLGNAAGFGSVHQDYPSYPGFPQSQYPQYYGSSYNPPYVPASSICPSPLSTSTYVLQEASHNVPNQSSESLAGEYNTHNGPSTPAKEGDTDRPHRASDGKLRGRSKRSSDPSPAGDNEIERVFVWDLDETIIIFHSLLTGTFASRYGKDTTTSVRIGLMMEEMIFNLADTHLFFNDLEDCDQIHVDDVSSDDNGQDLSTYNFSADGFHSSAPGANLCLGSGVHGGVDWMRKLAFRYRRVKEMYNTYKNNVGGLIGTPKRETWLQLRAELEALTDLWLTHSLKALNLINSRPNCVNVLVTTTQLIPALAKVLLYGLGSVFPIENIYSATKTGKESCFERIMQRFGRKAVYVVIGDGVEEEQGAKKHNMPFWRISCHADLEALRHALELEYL
# Target sequence (Q15475 whole entry, looked up): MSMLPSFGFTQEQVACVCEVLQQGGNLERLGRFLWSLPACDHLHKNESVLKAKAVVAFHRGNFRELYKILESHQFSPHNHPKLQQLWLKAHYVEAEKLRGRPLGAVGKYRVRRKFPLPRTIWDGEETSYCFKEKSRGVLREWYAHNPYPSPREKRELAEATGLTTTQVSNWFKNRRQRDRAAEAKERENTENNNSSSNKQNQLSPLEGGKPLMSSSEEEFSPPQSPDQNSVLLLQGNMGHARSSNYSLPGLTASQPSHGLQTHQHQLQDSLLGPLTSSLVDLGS
#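 AlphaScreen luminescence read after one hour at 37 °C in darkness. Pin-transferred compounds met GST-Six1 and His-Eya2 protein (5X stock 250 nM/500 nM) plus glutathione donor and Ni-chelate acceptor beads (5X, 50 ug/mL).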
# TRPML1 ag = activates the human TRPML1 channel; Q9GZU1; TRPML1-expressing cells, Ca2+ dye fluorescence, FDSS; host cell line not named in the record; reference of the full effect not given here; activation, % (no concentration beside the values); hit rate 0.12% among 410,000; AID 624414; in the data active = activation above about 50%; inconclusive = about 30% to 50%; inactive = below about 30%; further: 0% is about no effect; the text of the record puts the active cut at 80%
#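 Calcium fluorescence on an FDSS kinetic reader gave the read-out. Tet-induced TRPML1-DL cells were plated overnight, dye-loaded (Ca8 with quencher, 45-90 min, room temperature, dark), then read 110 s after compound addition, and again 110 s after 4uM final 54-4 (EC80).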
# D2 agonist = human D2 receptor agonism in beta-arrestin assay; P14416; DiscoveRx PathHunter D2 beta-arrestin, luminescence, 90 min; 100% = 57 uM dopamine signal; hit rate 0.084% among 360,000; activation, % (concentration not given with the values); in the data active = activation above about 40%; inconclusive = about 15% to 40%; inactive = below about 15%; further: compound concentration not given in the record; the text of the record calls up to 30% inactive
#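 Agonist mode: compounds alone added to overnight-plated D2 PathHunter cells for 90 min at 37 C, with 57 uM final dopamine (EC100) defining full response. Beta-arrestin recruitment detected by chemiluminescent reagent, read after 1 h at ambient temperature.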
# PINK1 expr mod = modulators of PINK1 expression; PINK1 immunofluorescence, high-content cytometry, 24 h; Potency, µM (highest dose often 76.6 µM), for inactives: at the highest dose activation (PINK1 increase), hits mostly activators; hit rate 0.2% among 410,000; AID 624263; active = well fitted activation curve with a large enough effect; inconclusive = small, poorly fitted or top-dose-only effect; inactive = flat fitted curve, though single readings scatter; cell line not stated here;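 further: potency means the concentration at half of the fitted maximal effect; % of control where 0% means no effect; nearly all actives have a fitted effect of over 65% in size; a mitochondrial uncoupler was the plate control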
#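 Stable cell line treated 24 h with compounds at 5 concentrations (CCCP controls), then fixed and immunostained for PINK1 plus nuclear and cell stains; PINK1 immunofluorescence quantified by laser-scanning microplate cytometry.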
# Starred values were filed as active, the others as inactive; ? = inconclusive; nt = not tested or not shown; & = joins results of further samples; [ ] = dose if it differs, or a comment.
Compound	TRPML1 inh	CtBP-E1A blk	Six1-Eya2 inh	TRPML1 ag	D2 agonist	PINK1 expr mod
Cc1ccc(S(=O)(=O)N2CCC(=O)N([C@H](COCc3ccccc3)Cc3ccccc3)CC2)cc1	nt	0	10	2.4	nt	-1.4%
O=C(N/N=C/c1ccccn1)c1[nH]c2ccc([N+](=O)[O-])cc2c1-c1ccccc1	5	-2	-22	1.4	-4.9	0.0%
CCc1ccc(OCCNC(=O)c2ccccc2SCc2ccc(F)cc2)cc1	7	5	10	3.5	-4.1	4.9%
Cc1cc(N2CCN(c3nnnn3-c3ccccc3)CC2)n2ncnc2n1	2	-1	4	-0.2	-2.1	0.2%
CN(C)S(=O)(=O)c1cccc(C(=O)NCC2(N3CCOCC3)CCCCC2)c1	-7	nt	1	-0.7	-5.2	0.2%
CCOC(=O)c1cc(NC(=O)CCC(=O)O)ccc1N1CCCCC1	21	6	9	-0.9	7.3	0.1%
COC(=O)[C@@]1(Sc2ccc(C)cc2)CC(=O)N(c2ccc(Cl)cc2)[C@@H]1c1ccccc1	nt	0	-2	-0.2	nt	2.5%
CC(C)c1cccc(C(C)C)c1NC(=O)COC(=O)c1ccc(OCC(=O)Nc2cccc(C(F)(F)F)c2)cc1	5	30	10	1.2	-5.6	0.5%
O=C1CC(C2CCCO2)C(=O)N1Cc1ccccc1 (stereo not drawn)	9	8	8	1.3	-0.3	-2.4%
O=C(COc1ccccc1)Nc1ccc(S(=O)(=O)Nc2ccccn2)cc1	-5	2	-12	0.3	-2.5	0.6%
Cc1ccc2nnc(Cl)n2n1	-19	0	25	0.0	-3.6	-1.4%
CCN(CC)S(=O)(=O)c1ccc(OC)c(NC(=O)CSc2cc(C)ccc2C)c1	55	2	2	3.2	2.5	-0.1%
CC(C)CC(c1nnnn1Cc1cccs1)N1CCN(c2nc3ccccc3s2)CC1 (stereo not drawn)	-11	-2	-2	74*	1.4	0.8%
CCCc1nnc(SCC(=O)N2CCCC(C)C2)n1CCOC (stereo not drawn)	7	0	6	1.6	-1.4	1.2%
CCOC(=O)c1nc(Nc2ccc(C(C)=O)cc2)c2ccccc2n1	-3&35	-11	?	-1.3&2.3	-4.4	6.9%&5.7%
CSc1nc2ccc(NC(=O)c3c(F)cccc3F)cc2s1	3	-8	-9	1.5	0.5	-1.5%
Nc1nc(OCc2ccccc2)c2[nH]cnc2n1	12	-2	-19	-0.6	6.9	2.5%
Cc1nn(-c2ccccc2)c(N)c1C1(O)C(=O)N(C(C)C)c2ccccc21 (stereo not drawn)	2	7	1	-0.6	-2.0	6.1%
CC[C@]12c3[nH]c4ccccc4c3CCN1C(=O)C(CC(=O)NCCN1CCOCC1)C[C@@H]2C(=O)N1CCN(C(=O)C2CC2)CC1 (stereo partly drawn)	-9	2	4	0.1	-2.0	-0.1%
Cc1cccc(Oc2nc(-c3ccncc3)nc3ccccc23)c1	50	11	2	2.2	3.4	2.9%
COc1ccc(NC(=S)NCc2ccc(S(N)(=O)=O)cc2)cc1OC	-9	-23	-8	0.0	-0.3	-1.7%
CSCCC(NC(=O)c1ccc(Cl)cc1Cl)C(=O)OC1CCCCC1=O (stereo not drawn)	-1	1	-8	-0.5	-3.1	0.0%
CN1CCN(C(=O)c2ccc(CN(c3ccccc3)S(=O)(=O)c3ccccc3)cc2)CC1	-4	-4	4	-0.4	-3.2	0.3%
CC(C)C[C@@H](COCc1ccc(Cl)cc1)N1CCN(C(=O)c2ccc(C(F)(F)F)cc2)CCC1=O	nt	8	-1	0.8	nt	15%
CC1CCN(S(=O)(=O)c2ccc3nc(-c4cccnc4)cc(C(=O)NCCCOC(C)C)c3c2)CC1	1	nt	nt	1.1	nt	-0.7%
COc1cccc(OC)c1C(=O)Nc1ccc(S(=O)(=O)N2CCCCC2)cc1	-14	-6	-1	-0.6	3.3	1.8%
CCn1c(O)c(C=NC2CCCC2)sc1=S	-5	-6	-5	-0.9	-2.7	0.7%
O=C(C1=C(c2ccccc2)C(=O)c2ccccc2C1=O)c1ccccc1	-1	-22	?	2.3	9.6	-1.4%
CCCNC(=O)NC(=O)COC(=O)c1oc2ccc(OCC)cc2c1C	10	0	-7	0.5	1.7	6.7%
COc1ccc(C2c3ccc(O)cc3Oc3ncn(Cc4ccco4)c(=N)c32)cc1OC (stereo not drawn)	nt	-6	2	nt	-2.9	1.4%
Cc1ccc(CNC(=O)c2cc(-c3ccccc3)n(Cc3cc(C)no3)n2)cc1	17	-1	-4	0.2	-3.5	-0.2%
Cc1occc1-c1nc(-c2ccccn2)no1	-7	0	-1	0.3	-2.7	-1.1%
CCn1c(SCC(=O)N2CCCCC2)nc2c([nH]c3ccccc32)c1=O	-16	-5	9	0.2	-7.6	1.5%
COc1ccc(CNCc2c(C(=O)O)c(C)n(Cc3ccccc3C)c2C)c(OC)c1	-3	nt	nt	-0.8	nt	0.5%
O=C(CSc1ncc(C(F)(F)F)cc1Cl)N1CCN(S(=O)(=O)c2ccc3ccccc3c2)CC1	10	4	-1	2.1	4.1	0.0%[38.3 µM]
Cc1cc(C)cc(C(=O)NCC(=O)OCC(=O)NC2CCCc3ccccc32)c1 (stereo not drawn)	22	-2	10	2.5	-0.1	1.8%
O=C(Nc1ccccc1F)c1ccccc1C(=O)Nc1ccccc1F	4	7	13	4.4	-2.8	0.4%
O=c1cc(-c2ccccc2Cl)oc2c(NS(=O)(=O)c3cc(Cl)cc(Cl)c3O)ccc(O)c12	10	-1	-10	-0.5	1.1	?
Cc1cccc(OCC(=O)O/N=C(\N)c2ccncc2)c1	10	8	12	2.5	1.3	-0.6%
Cc1ccc2nc(-c3ccc(NC(=O)COC(=O)c4ccc([N+](=O)[O-])o4)cc3)sc2c1	19	-1	0	0.1	-1.0	-0.5%
COC(=O)CC1C(=O)NCCN1C(=O)CSc1nnnn1-c1ccc(OC)cc1 (stereo not drawn)	-6	nt	0	2.6	1.4	1.0%
O=C(/C=C/c1ccc(OCCCF)cc1)Nc1ccnc(-c2ccncc2)n1	-22	-19	3	-0.2	6.2	2.1%
COc1ccc(-c2nc(CSCC(=O)N3CCN(c4cc(Cl)ccc4C)CC3)c(C)o2)cc1	4	nt	nt	0.9	nt	1.6%
CC(=O)Nc1ccc(S(=O)(=O)NCCCc2ccccc2)cc1	-1	12	4	-1.0	-2.3	0.0%
O=C(COc1ccc(F)cc1Br)NCCCN1CCCC1=O	27	-11	-2	-0.1	-2.0	-0.3%
CCOCC(=O)Nc1cccc(Br)c1	-14	3	28	0.5	-5.8	-0.1%
c1ccc(CN2CCN(C(c3ccccc3)c3ccccc3)CC2)cc1	-7	-4	4	8.2	3.1	?
COc1ccc(-n2cc([N+](=O)[O-])c(=O)c3ccc(Cl)cc32)cc1	49	9	7	1.8	0.1	3.7%
CC1CC2(CCCC2)N(C(=O)N(C)C)c2ccc(F)cc21 (stereo not drawn)	0	nt	0	1.7	3.9	1.3%
O=CNNC(=O)c1cccc([N+](=O)[O-])c1	-21	-10	-7	-0.7	-1.7	1.4%

# Sorted by formula weight (rising): some entries from above.
Compound	TRPML1 inh	CtBP-E1A blk	Six1-Eya2 inh	TRPML1 ag	D2 agonist	PINK1 expr mod
CCCNC(=O)NC(=O)COC(=O)c1oc2ccc(OCC)cc2c1C	10	0	-7	0.5	1.7	6.7%
CCn1c(SCC(=O)N2CCCCC2)nc2c([nH]c3ccccc32)c1=O	-16	-5	9	0.2	-7.6	1.5%
Cc1cc(C)cc(C(=O)NCC(=O)OCC(=O)NC2CCCc3ccccc32)c1 (stereo not drawn)	22	-2	10	2.5	-0.1	1.8%

# More records follow.
Compound	TRPML1 inh	CtBP-E1A blk	Six1-Eya2 inh	TRPML1 ag	D2 agonist	PINK1 expr mod
C[C@H](O)[C@@H]1C(=O)N2CCc3ccc(N4CCOCC4)cc3[C@@H]2C[C@@H]1N(C)C(=O)C(C)(C)C	1	8	5	1.2	-0.6	-1.1%
c1ccc(-n2c(-c3ccncc3)nnc2-c2cccs2)cc1	4	3	3	2.2	1.5	-3.2%
Cc1cccc(OCCOCCn2c(-c3ccc(Cl)cc3)nc3ccccc3c2=O)c1C	-10	nt	nt	-0.2	nt	2.3%
O=C1NC2(CCCCC2)C(=O)N1CCS(=O)(=O)Oc1ccccc1	1	6	2	-0.5	-0.9	-0.4%
CC(/C=N/NC(=O)Cc1cc(=O)[nH][nH]1)=C\c1ccccc1	18	2	-2	-0.1	-1.9	-0.6%
CCCCNC(=S)N(C)/N=C/c1c(C)[nH]c2ccccc12	-12	3	-8	-1.1	1.3	12%
O=C(CC1C(=O)NCCN1Cc1ccc(-c2ccccc2)cc1)NC1CCC1 (stereo not drawn)	22	nt	-2	-0.1	15	2.7%
Cn1c(SCc2ccc3c(c2)OCO3)nnc1-c1ccccc1	15	5	0	1.0	-2.1	1.2%
CCCCn1c(N)c(N(CCOC)C(=O)c2oc3ccc(OCC)cc3c2C)c(=O)[nH]c1=O	-11	?	10	-0.3	-3.0	1.1%
CCN(C(=O)COC(=O)CNS(=O)(=O)c1ccccc1)c1ccccc1	-3	-8	10	0.1	-5.3	0.0%
Cn1c(-c2ccc3c(c2)OCO3)c(C(=O)O)c(=O)c2ccccc21	9	10	13	-0.6	-4.1	0.0%
Cc1ccc(-c2n[nH]c(=O)c3ccccc23)cc1N	11	-6	-14	-0.3	-3.4	61%[38.3 µM]
CCOc1cc(C(=O)NC2CCCCCCC2)cc(OCC)c1OCC	34	nt	4	-0.5	-2.8	4.5%
Cc1cc(NC(=O)NCc2ccco2)ccc1NC(=O)NCc1ccco1	-2	-3	3	-0.6	2.6	4.8%
COc1cc(NC(=O)c2cnc3c(-c4ccc(F)cc4)c(C)nn3c2C)cc(OC)c1	-3	nt	nt	0.3	nt	5.5%
O=C(Nc1ccccc1-c1ccccc1)NC1CCN(C(=O)N2CCOCC2)CC1	-6	8	6	-0.4	-1.7	-1.8%
Cc1ccc(S(=O)(=O)c2cnc(-c3ccccc3)nc2N2CCCCC2)cc1	-11	nt	11	-0.4	-3.6	-2.3%
CCOC(=O)C1=C(C)Nc2ccc(C)cc2S1	8	-21	-19	0.1	-0.5	1.0%
CCOc1ccccc1NC(=O)CN(c1ccc(OC)cc1)S(=O)(=O)c1c(C)[nH]c(=O)[nH]c1=O	27	-84*	-84*	-0.3	-3.8	-1.3%

# Filtered by structure, the entries above with a nitro group on carbon.
Compound	TRPML1 inh	CtBP-E1A blk	Six1-Eya2 inh	TRPML1 ag	D2 agonist	PINK1 expr mod
O=C(N/N=C/c1ccccn1)c1[nH]c2ccc([N+](=O)[O-])cc2c1-c1ccccc1	5	-2	-22	1.4	-4.9	0.0%
Cc1ccc2nc(-c3ccc(NC(=O)COC(=O)c4ccc([N+](=O)[O-])o4)cc3)sc2c1	19	-1	0	0.1	-1.0	-0.5%
COc1ccc(-n2cc([N+](=O)[O-])c(=O)c3ccc(Cl)cc32)cc1	49	9	7	1.8	0.1	3.7%
O=CNNC(=O)c1cccc([N+](=O)[O-])c1	-21	-10	-7	-0.7	-1.7	1.4%
